Source: PubChem BioAssay (Fisher Drug Discovery Resource Center)
NPYLR7 ag: mosquito NPYLR7 agonism. activation, % at 10 µM. AID 1259423. hit rate 0.15% among 270,000. HEK293T NPYLR7/Galpha15, GCaMP6s calcium fluorescence; in the data active means activation above about 40%;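 further: 0% = vehicle and 100% = reference agonist at the receptor; some compounds past the cut are filed as inactive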
NPYLR7 ag max-min: second read-out of NPYLR7 ag, no call of its own (marks repeat the call); activation, %; measured here: Max-Min RFU normalised activation; some inactives read as strong as hits;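 span of the calcium signal over five minutes; 0% = vehicle and 100% = native peptide agonist; compound fluorescence can raise it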
* hit, by the source's call; & = joins results of further samples; ! = not active in a repeat. These rows are one share of the data, so the mix of outcomes need not match the whole.

SMILES	NPYLR7 ag	NPYLR7 ag max-min
CC1CCCN1c1ccc(C(=O)N2CCCN(c3ncccn3)CC2)cn1 (stereo not given)	11	8
CCc1c(C)nc(-n2nc(C)cc2NC(=O)c2ccc(OC)cc2OC)[nH]c1=O	7	5
Cc1sc2ncnc(SCC(=O)c3cccs3)c2c1C	9	3
COc1cc2c(nn1)CCN(Cc1c(C)nn(C)c1Cl)C2	3	3
CNC(=O)[C@H]1CN(C(=O)N2CCOCC2)[C@]2(C)C(=O)N(CC(=O)N(C)C)c3ccccc3[C@H]12	16	25
Clc1ccc(-c2ccc(CNC3CCCc4c3cnn4-c3ccccn3)o2)cc1 (stereo not given)	3	1
CCN1C(=O)CC(CC(=O)N2CC3CCC2C3)(c2cccc(C(F)(F)F)c2)C1=O (stereo not given)	0	-2
Cc1ccccc1-n1nc2c(c1NC(=O)c1ccc(S(=O)(=O)N(C)C)cc1)CS(=O)(=O)C2	-3	-6
COc1ccc(-c2cc(NC(=O)c3cc(F)cc(F)c3)ccc2OC)cc1	-4	-3
CCn1cc(Br)c(C(=O)NC(=S)Nc2cnn(C)c2C)n1	3	1
OCC(O)CSc1ncccc1Br (stereo not given)	-11	-13
CN(C)CCNS(=O)(=O)c1ccc(F)cc1F	8	10
CC(C)(C)c1cc(NC(=O)c2ccc(F)c(F)c2)n(-c2ccc(C#N)cc2)n1	30	31
CC(=O)c1cccc(S(=O)(=O)N2CCN(CN3C(=O)NC4(CC(C)CC(C)(C)C4)C3=O)CC2)c1 (stereo not given)	5	10
O=S(=O)(c1ccc(F)cc1)N(c1ccccc1)S(=O)(=O)c1ccc2ccccc2c1	5	2
COc1ccc2nc(N(CC3CCCO3)C(=O)c3cc(C)nn3C)sc2c1 (stereo not given)	4	-1
COc1ccc(CNC(=O)c2cccnc2N2CCN(S(=O)(=O)c3ccc(NC(C)=O)cc3)CC2)cc1	2	-2
CCc1nc2n(n1)C(=O)C(C(c1ccc(OC)cc1)N1CCN(CC)CC1)S2 (stereo not given)	-1	-8
COc1cc2c(cc1OC)CN(Cn1nc(C)c([N+](=O)[O-])c1C)CC2	6	3
O=C(/C=C/c1ccccc1Cl)Nc1ccc(Cn2ccccc2=O)cc1	15	9

Retrieved one by one from above (4):
SMILES	NPYLR7 ag	NPYLR7 ag max-min
Cc1sc2ncnc(SCC(=O)c3cccs3)c2c1C	9	3
CN(C)CCNS(=O)(=O)c1ccc(F)cc1F	8	10
COc1ccc(CNC(=O)c2cccnc2N2CCN(S(=O)(=O)c3ccc(NC(C)=O)cc3)CC2)cc1	2	-2
COc1cc2c(nn1)CCN(Cc1c(C)nn(C)c1Cl)C2	3	3

Carrying on:
SMILES	NPYLR7 ag	NPYLR7 ag max-min
COCCCNCC(=O)N1CC(=O)N(c2ccc(Cl)cc2)C1	8	4
CC(C)c1ccccc1N1C(=O)CSC1c1ccc(NC(=O)c2ccc(Cl)c(Cl)c2)cc1 (stereo not given)	10	11
CN(C)c1ccc(C(=O)OCC(=O)Nc2ccc(F)cc2)cc1	9	4
Cc1ccc(S(=O)(=O)N(C)C)cc1NC(=S)NN1CCOCC1	-1	-3
CCc1cccc2c(C(CC(=O)NCCc3ccc(Cl)cc3Cl)c3cccc(C(F)(F)F)c3)c[nH]c12 (stereo not given)	13	-1
CNc1ccc(-c2ccc(N)nc2)cn1	0	-3
COc1cc(OC)cc(C(=O)N2CCCN(C(=O)CN3CCc4sccc4C3c3ccc(Cl)cc3)CC2)c1 (stereo not given)	10	2
CCOC(=O)C1=C(CC)NC2=C(C(=O)CCC2)C1c1ccccc1 (stereo not given)	1	3
COC(=O)CN1CCN(C(=O)c2cn(C(C)C)cc3c(=O)n(-c4ccccc4)nc2-3)CC1	-3	-8
CC(=O)N1CCC(NC(=O)CN(C)c2ccc(Br)cc2C)CC1	0	-1
NC(=O)N1CCc2cc(NC(=O)CN3CCN(Cc4ccccc4)CC3)ccc21	1	0
COCCN[C@H]1[C@@H]2OC[C@@H](O2)[C@@H](NCc2ccncc2)[C@@H]1O	-6	-10
CCCOC(=NCCN1CCCCC1)NC(=O)c1ccco1	-6	-3
O=c1cc(Oc2ccc(-c3ccccc3)cc2)nc2ccc(Cl)cn12	15	8
COc1ccc(Cl)cc1N1CCN(C(=O)C2CCCC2)C(C)C1=O (stereo not given)	-4	8
O=C(c1ccccc1)N1CCOC(COCc2ccccc2F)C1 (stereo not given)	9	5
COc1ccc(C2NC(=O)c3ccc(Cl)cc3N2)cc1OC (stereo not given)	2	0
CC(=O)Nc1ccc(C(=O)N(C)C(C)c2ccc(F)c(F)c2)cc1 (stereo not given)	5	3
CC(C)CN(Cc1ccccn1)C(=O)c1coc2c1C(=O)CCC2	-7	-6
O=C(Nc1ccc(N2CCCC2)c(C(=O)NCCc2ccccc2)c1)c1ccccc1	-6	2
Cc1ccc(N2C(=O)CSC2c2ccccc2NC(=O)c2cccc3ccccc23)cc1 (stereo not given)	5	13
O=C(CN1C(=O)CC(c2ccccn2)=Nc2ccccc21)Nc1ccccc1	-10	-10
CC(=O)OC(CCN1CC2CCN1CC2)c1ccccc1 (stereo not given)	2	43
COc1ccc(OCC(O)CN(Cc2ccc(F)cc2)Cc2ccc(OC)c(OC)c2)cc1 (stereo not given)	-8	-7
CC(NCCC(c1ccccc1)c1ccccc1)c1ccccc1 (stereo not given)	59*!	48*!
CCOc1ccc(C(=O)c2c(N)c(C#N)c3ccccn23)cc1	-4	-9
Cc1cc(NC(=O)[C@H](C)NC(=O)c2ccco2)ccc1Br	-4	-6
Nc1nnc(Sc2ncc([N+](=O)[O-])s2)s1	-8	-9
Cc1ccc(NC(=O)CSc2cn(CC(=O)N3CCCC3)c3ccccc23)cc1Cl	-3	-4
Cc1cc(NCC2CCS(=O)(=O)C2)nc(-c2cccnc2)n1 (stereo not given)	-1	-9
CN(CCc1c[nH]c2ccccc12)C(=O)c1cncn1-c1cccc(-c2ccccc2C(F)(F)F)c1	-2	10
COCCN1CC(C(=O)NCCCN2CCCc3ccccc32)CCC1=O (stereo not given)	2	0
CCCCN(CC(=O)N1c2ccccc2-n2cccc2C1c1ccc(Cl)cc1)C(=O)c1cccc(OC)c1 (stereo not given)	3	12
N#Cc1cccc(C(=O)N2CCN(Cc3cccc(-c4noc(-c5ccco5)n4)c3)CC2)c1	39	27
Cc1noc(C)c1C(=O)NC1CC1c1ccc(F)cc1 (stereo not given)	-13&20	-16&18
CCCCc1nc(N2CCCNCC2)c2c(-c3ccccc3)noc2n1	-9	-4
CCN(CC)S(=O)(=O)c1ccc(NC(=O)COc2ccc(Br)cc2Cl)cc1	2	1
COc1ccc(C2(C)NC(=O)N(NC(=O)CCl)C2=O)cc1 (stereo not given)	10	4
COc1ccccc1OCC1CN(C(=O)c2cccc(C#N)c2)CCO1 (stereo not given)	24	26
CCn1ccnc1CN1CCN(CCn2ccccc2=O)CC1	3	2

One compound at a time, as listed above:
CC(NCCC(c1ccccc1)c1ccccc1)c1ccccc1 (stereo not given) is listed as NPYLR7 ag = 59*!; NPYLR7 ag max-min = 48*!
CCCCc1nc(N2CCCNCC2)c2c(-c3ccccc3)noc2n1 is listed as NPYLR7 ag = -9; NPYLR7 ag max-min = -4

Further compounds follow:
SMILES	NPYLR7 ag	NPYLR7 ag max-min
CCNCCN1C(=O)C(C)SC1c1ccc(OC)cc1 (stereo not given)	-2	-8
Cc1cc(NC(=O)c2ccc(S(=O)(=O)N(C)C)cc2)n(-c2nc(C)c(C)c(=O)[nH]2)n1	-3	-5
COc1ccc(OC)c(C(=O)NC(C#N)c2ccccc2C)c1 (stereo not given)	-6	-7
Cc1[nH]c(=O)[nH]c(=O)c1CCc1nnc(SCC(N)=O)o1	-7	-13
N#CC1(NC(=O)c2cc(I)c[nH]2)CC1	2	2
Fc1ccc(CNCC2(c3ccnc(-c4ccc(Cl)cc4)c3)CC2)cc1	8	23
CC(C)(C)CN1CC(O)CN(C(=O)Cc2cccs2)CC1=O (stereo not given)	3	14
CC(=O)Nc1ccc(C(=O)N(C)C(C)Cc2cc(C)ccn2)cn1 (stereo not given)	2	0
CC1CCCCN1C(=O)c1cc(N2CCN(c3cccc(C(F)(F)F)c3)CC2)nc2ccccc12 (stereo not given)	7	2
Cn1cnnc1Sc1ccc(C=NN=C2CC3CCC2(C)C3(C)C)cc1[N+](=O)[O-] (stereo not given)	1	6
CCNC(=O)C1(C)CCCN1C(=O)c1ccc(C)cc1 (stereo not given)	8	5
CC(=O)N1CCc2cc(S(=O)(=O)NCc3ccc(C)c(F)c3)ccc21	9	6
CNC(=O)[C@@H]1C[C@H](N)CN1C(=O)c1ccc2c(c1)nc(C)n2-c1ccccc1	-1	-3
CC(NC(=O)c1ccc([N+](=O)[O-])o1)C(=O)O (stereo not given)	3	3
COc1cccc(-c2nc(-c3cn[nH]c3C)[nH]c2-c2cccc(OC)c2)c1	6	7
FC(F)(F)c1cccc(-n2nnnc2-c2nc3ccccc3[nH]2)c1	1	25
C=CCn1c(SCC(=O)NCCc2ccc(OC)c(OC)c2)nc2sc3c(c2c1=O)CCCC3	-8	-14
Cc1ccn(CCCOc2ccccc2)c(=O)c1	-9	-11
CCCCCOC(=O)C1=C(C)N(C)C(=O)NC1c1ccc(Cl)cc1 (stereo not given)	4	3
O=C(COC(=O)Cc1coc2ccc3ccccc3c12)Nc1c(F)cccc1F	-8	3

Shown comma-delimited: 2 of the compounds above
smiles,NPYLR7 ag,NPYLR7 ag max-min
COc1cccc(-c2nc(-c3cn[nH]c3C)[nH]c2-c2cccc(OC)c2)c1,6,7
FC(F)(F)c1cccc(-n2nnnc2-c2nc3ccccc3[nH]2)c1,1,25

Other structures.
SMILES	NPYLR7 ag	NPYLR7 ag max-min
C=CCNC(=O)NC(=O)COC(=O)C1CC2CCCC(C1)C21SCCS1 (stereo not given)	0	35
S=c1[nH]nc(-c2cccc(Br)c2)n1-c1ccccc1	-7	-6
CC(c1ccc2c(c1)OCCO2)N(C)Cc1cn(C)nc1-c1ccccc1F (stereo not given)	10	0
Cc1cccnc1C(c1ccc(F)cc1)N(C)C(=O)C1CCN(CCn2cnc3c2c(=O)n(C)c(=O)n3C)CC1 (stereo not given)	-14	-16
O=C(CSc1ccc(C(F)(F)F)cn1)NC1CCOC1=O (stereo not given)	-6	-14
Cc1ccc(NC(=O)CSc2ccc(-c3sc(-c4cccnc4)nc3C)nn2)c(C)c1	2	4
COCCOc1nc(-c2ccc(F)cc2)n(-c2ccc(NC(=O)c3ccc(F)cc3)cc2)n1	16	15
Cc1cc(C)nc(NS(=O)(=O)c2ccc(NC(=O)CN3C(=O)S/C(=C\c4ccccc4)C3=O)cc2)n1	-3	1
O=C(c1cccc(Br)c1)N1CCCC(N2CCN(CCOc3ccccc3)CC2)C1 (stereo not given)	22	34
C=CCn1c(SCc2ccc(OC)cc2)nnc1-c1cc(-c2ccccc2)nc2ccccc12	1	9
Cc1cc(C)nc(NN=C2c3ccccc3-c3ccccc32)n1	2	2
Cc1cc(C)c(S(=O)(=O)NCc2ccco2)cc1C	3	-1
Cn1c2c(c(=O)n(C)c1=O)CN(CCN1CCOCC1)CN2	-9	-17
C=CCCC(O)CNCc1nc(-c2ccc3c(c2)OCO3)no1 (stereo not given)	3	0
CCOc1ccccc1-n1c(=O)[nH]c2c(C(N)=O)ncnc21	11	3
OCC1(CCCc2ccccc2)CCN(C2CCN(c3ccccc3)CC2)CC1	-8	-10
COc1cccc(-c2ccc3nnc(SCC(N)=O)n3n2)c1	-11	-9
O=C(NC1CCN(c2ccccc2C(=O)NCc2cccc(C(F)(F)F)c2)CC1)c1ccccc1F	18	29
Cc1cc(NC(=O)Nc2cccc(COCC(F)(F)C(F)F)c2)no1	1	1
O=C(Cn1c(CO)cnc1SCc1cccc(C(F)(F)F)c1)NCc1ccccc1	3	-1
O=C(CN1C(=O)NC2(CCCC2)C1=O)NCc1ccco1	2	7
Cc1cc(C)n(CC2(CNc3ccnc(C(=O)NC4CC4)c3)CC2)n1	2	3
CN1CCN(C(CN)c2ccc3c(c2)CCN3C)CC1 (stereo not given)	5	5
CCNC(=O)NC(=O)CSc1nnc(-c2ccccc2)n1CC	10	1
CCOC(=O)c1sc2ncn(CC(=O)c3ccc(C)cc3C)c(=O)c2c1C	-2	-3
COc1cc(NC(=O)N(CC(=O)N(Cc2ccccc2)Cc2ccc(C)o2)CC(C)C)cc(OC)c1	2	9
COCCNC(=O)C1(C)CCCN(CC(=O)c2ccc(OC)cc2)C1 (stereo not given)	10	6
COC(=O)c1cc2n(n1)CCCN(C(=O)C(=O)Nc1ccc(F)cc1)C2	-2	-7
COc1cc(/C=C\C(=O)NCc2cc(-c3ccc(C)cc3)on2)cc(OC)c1OC	2	-1
COc1cc(OC)cc(C(=O)NCCSCc2cccs2)c1	0	41
COc1ccc(-c2cnc3ncnn3c2NCc2c(C)cc(Cl)cc2Cl)cc1OC	11	3
Cn1nccc1C(=O)NCCN1C(=O)OC(C)(C)C1(C)O (stereo not given)	-4	-7
Cc1cccc(C(=O)N2CCN(c3ccc(-n4nc(C)c(C)c4C)nn3)CC2)c1	-5	-10
CC1CCC(N2C(=O)C(O)=C(C(=O)C3CC3)C2c2ccc(C(=O)O)cc2)CC1 (stereo not given)	11	5
O=C(c1cccc(SC(F)F)c1)N1CCC(c2ccccc2)CC1	-4	-9
Cc1nn(C)c(C)c1CN(C(=O)CC1C=CCC1)C1CC1 (stereo not given)	-2	-2
COc1cc(/C=C/C(=O)O)cc(OC)c1OC	-8	-11

No new results follow: an excerpt of the list.
SMILES	NPYLR7 ag	NPYLR7 ag max-min
CCNC(=O)NC(=O)CSc1nnc(-c2ccccc2)n1CC	10	1
CCOC(=O)c1sc2ncn(CC(=O)c3ccc(C)cc3C)c(=O)c2c1C	-2	-3
COc1cc(NC(=O)N(CC(=O)N(Cc2ccccc2)Cc2ccc(C)o2)CC(C)C)cc(OC)c1	2	9
COCCNC(=O)C1(C)CCCN(CC(=O)c2ccc(OC)cc2)C1 (stereo not given)	10	6
COC(=O)c1cc2n(n1)CCCN(C(=O)C(=O)Nc1ccc(F)cc1)C2	-2	-7
COc1cc(/C=C\C(=O)NCc2cc(-c3ccc(C)cc3)on2)cc(OC)c1OC	2	-1
